T cruzi repl: inhibitors of intracellular T. cruzi growth, primary screen, luminescence, NIH3T3 host cells; 300,000 compounds, 1.4% hits; T. cruzi beta-gal in NIH3T3, 90 h; inhibition, % (no concentration beside the values);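 active = mean inhibition across valid replicates above about 55%, limit read from the data; inconclusive = mean below that limit but half or more replicates reach it; inactive = mean below it, under half of replicates reach it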;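 note: signal also drops with host cell toxicity which is not excluded here; 0% = plate median of DMSO wells and 100% = zero luminescence signal; higher percent means less beta-gal luminescence so fewer parasites; stock transfer was 50 nL into about 50 µL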
Beta apoptosis: inhibitors of cytokine-induced beta cell apoptosis, primary screen, luminescence; INS-1E cytokine-induced death, ATP luminescence, 48 h; percent of positive-control rescue, neutral wells zero; protection from apoptosis, % (concentration not given with the values); 300,000 compounds, 0.8% hits;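 active = all replicates at 75% or more, or half of them and the mean; inconclusive = half reach 75% but not the mean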;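 note: 0% = cytokine-treated negative control wells and 100% = positive control rescue; higher means more ATP so stronger rescue from cytokine killing; wells of about 40 µL received 100 nL stock; the first replicate is given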
Bfl-1 A1 inh: caspase 3/7 activation in MEF A1-2A-BIM cells, primary screen, A1 inhibitor project, cell-based, luminescence, HTS; 330,000 compounds, 0.066% hits; caspase activation, % (concentration not given with the values); Caspase-Glo 3/7 luminescence, 3 h; percent of clofoctol response, vehicle zero; AID 2462, 2010;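 active = over half of replicate activation scores above 10%, or exactly half above 10 with the replicate mean above 10; inconclusive = replicate mean below 10 yet half the replicates above 10; inactive = over half of replicates below 10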;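 note: wells of about 30 µL received 50 nL stock; many hits fall short of the cut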
Calb FLC: C. albicans growth inhibition with fluconazole, primary screen, CaCi-2 strain, Alamar Blue fluorescence; C. albicans CaCi-2 (fluconazole-resistant clinical isolate) + fluconazole, 48 h; growth inhibition, % (test concentration not listed); 300,000 compounds, 0.57% hits;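 active = most replicates above 75%; inconclusive = exactly half above 75%; inactive = most below 75%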;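 note: all wells also contain fluconazole at 8 µg/ml as a sub-toxic cotreatment; 0% = median of DMSO wells and 100% = median of geldanamycin control wells; wells of about 8 µL received 7.5 nL stock; the first replicate is given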
LANA-H2B inh: blockers of LANA interaction with H2A/H2B – biochemical, FP readout, HTS, primary screen. Protein LANA1 (Human herpesvirus 8 type P (isolate GK18)), Q9QR71. cell-free LANA-H2A/H2B peptide, fluorescence polarization. inhibition, % (test concentration not listed). 320,000 compounds, 0.6% hits. AID 2629, 2010; in the data active = inhibition mostly above about 10%, no sharp cut-off; inactive = mostly below about 6.7%;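 note: stock transfer was 7.5 nL into about 10 µL; 0% = median of vehicle wells and 100% = median of positive control wells; one replicate is shown; the record names a cut of 25% in any replicate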
RanGTP-Imp inh: inhibitors of RanGTP-importin-beta interaction, primary screen, biochemical, FRET, CFP-Ran, YFP-importin-beta, homogeneous; inhibition, % (concentration not given with the values); 300,000 compounds, 1.1% hits; AID 2216, 2009; cell-free CFP-Ran/YFP-importin-beta FRET ratio; Ran GTPase (GTP-bound) - importin-beta complex;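 active = most replicates above 15%; inconclusive = exactly half above 15%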;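 note: 0% = DMSO wells and 100% = Ran loaded with GDP instead of GTP; wells of about 40 µL received 100 nL stock; the first replicate is given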
UCH37 inh: inhibitors of human UCH37 deubiquitinase, primary screen, biochemical, Ub-AMC cleavage, fluorescence; Ubiquitin carboxyl-terminal hydrolase isozyme L5 (Homo sapiens), Q9Y5K5; purified proteasome/UCH37; inhibition, % (concentration not given with the values); 330,000 compounds, 0.33% hits; AID 588478, 2011;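 active = mean of two replicates above 20%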;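 note: 0% = compound-free wells with enzyme and 100% = wells lacking proteasome; stock transfer was 100 nL into about 20 µL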
Target sequence (Q9Y5K5 whole entry, looked up): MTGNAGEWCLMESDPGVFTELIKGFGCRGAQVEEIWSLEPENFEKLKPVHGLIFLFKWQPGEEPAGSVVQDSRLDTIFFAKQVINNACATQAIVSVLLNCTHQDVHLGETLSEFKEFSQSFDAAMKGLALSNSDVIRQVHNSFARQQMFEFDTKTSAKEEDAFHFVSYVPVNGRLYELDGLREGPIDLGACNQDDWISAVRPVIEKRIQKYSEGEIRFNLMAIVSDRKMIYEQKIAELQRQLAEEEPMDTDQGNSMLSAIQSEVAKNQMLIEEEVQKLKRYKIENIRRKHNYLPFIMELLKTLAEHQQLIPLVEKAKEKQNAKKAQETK
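Signal – fluorescence, ex 355 nm, em 460 nm · System – Proteasome-bound UCH37 · Input – 0.15 nM proteasome as dispensed · Timing – 30 min preincubation with enzyme, 25 min cleavage at room temperature · Read-out basis – percent inhibition of cleavage signal versus uninhibited and no-proteasome wells · Medium – Tris-HCl pH 7.4 with ATP-MgCl2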
Beta2AR agonist: beta2AR agonists driving receptor internalization, primary screen, cell-based, FAP fluorogen, flow cytometry | 340,000 compounds, 0.43% hits | Am2.2-beta2AR cells; reference of the scale not given here | Beta-2 adrenergic receptor (Homo sapiens), P07550 | response, % (no concentration beside the values);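 active = response above a set limit, near 3 SD of response in nonfluorescent compounds, cut at about 42% in these data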;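 note: stock transfer was 100 nL into about 11 µL; a reference agonist was the positive control; negative values mostly stem from fluorescent compounds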
Target sequence (P07550 whole entry, looked up): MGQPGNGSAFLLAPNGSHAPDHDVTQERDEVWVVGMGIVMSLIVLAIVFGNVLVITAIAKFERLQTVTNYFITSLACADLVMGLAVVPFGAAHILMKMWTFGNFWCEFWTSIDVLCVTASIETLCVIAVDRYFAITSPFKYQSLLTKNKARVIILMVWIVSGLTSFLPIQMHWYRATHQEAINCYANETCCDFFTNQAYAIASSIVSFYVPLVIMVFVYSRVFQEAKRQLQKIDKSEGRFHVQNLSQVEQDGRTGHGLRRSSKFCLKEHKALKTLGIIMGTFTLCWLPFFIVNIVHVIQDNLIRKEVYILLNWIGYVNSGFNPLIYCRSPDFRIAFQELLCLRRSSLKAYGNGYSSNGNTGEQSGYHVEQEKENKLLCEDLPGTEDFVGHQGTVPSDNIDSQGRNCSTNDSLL
Active calls of the source: *; i = inactive; ? = inconclusive; / = not tested or not shown.

(1) CC(=O)N1c2ccc(S(=O)(=O)N3c4ccccc4CC3C)cc2CC1C (configuration not stated)
(2) N#CCCNc1c(Cl)cc(Cl)cc1C(=O)O
(3) CN(C)c1oc(-c2cccs2)nc1C#N
(4) Clc1ccc(CSc2ccc(-c3cccnc3)nn2)cc1
(5) COc1ccc(/C=N/NC(=O)c2ccc(COc3ccccc3Cl)o2)cc1
Compound	1	2	3	4	5
T cruzi repl	-1	-4	-16	4	-5
Beta apoptosis	1	-17	-4	-5	3
Bfl-1 A1 inh	-0.5	0.4	0.4	0.5	-2.5
Calb FLC	-18	2	-2	0	-4
LANA-H2B inh	-2.7	-0.6	-4.8	0.2	-3.4
RanGTP-Imp inh	0.5	-1.3	24*	3.9	2.8
UCH37 inh	3.8	1.9	/	1.8	/
Beta2AR agonist	-2	9	-8	-6	5

(6) O=C(NCc1ccco1)c1ccc(NS(=O)(=O)c2cccc([N+](=O)[O-])c2)cc1
(7) O=C(Nc1ccccc1)c1ccc(CSc2ncccn2)cc1
(8) COc1cc(OC)c(NS(=O)(=O)c2cccc(C(=O)OCC(=O)NCC3CCCO3)c2)cc1Cl (configuration not stated)
(9) Cc1onc(-c2ccccc2)c1-c1nnc(CN2CCN(S(=O)(=O)c3ccccc3)CC2)o1
(10) CCc1cccc(C)c1NC(=O)C1C2CCC(O2)C1C(=O)O (configuration not stated)
Compound	6	7	8	9	10
T cruzi repl	-2	3	-2	/	-7
Beta apoptosis	0	-16	-1	-9	-5
Bfl-1 A1 inh	0.6	-5.8	-0.1	0.1	-0.4
Calb FLC	-29	-3	12	/	-2
LANA-H2B inh	2.7	-1.1	-4.8	4.0	-4.2
RanGTP-Imp inh	i	7.7	3.1	/	?
UCH37 inh	2.6	0.3	-1.0	0.3	-3.9
Beta2AR agonist	7	0	2	4	6

(11) O=C(c1ccccc1Br)N(Cc1ccccc1)c1ccccc1
(12) Fc1cccc(F)c1CSc1nc2ccccc2[nH]1
(13) Cc1noc(C)c1C(=O)N1CCCC1
(14) Cc1ccc(S(=O)(=O)c2nc(-c3ccc(F)cc3)oc2SCC(N)=O)cc1
(15) COc1cc(OC)cc(C(=O)Nc2ccc(C(=O)c3ccncc3)cc2)c1
Compound	11	12	13	14	15
T cruzi repl	5	-8	4	4	8
Beta apoptosis	7	4	-6	2	-3
Bfl-1 A1 inh	?	-0.1	0.3	1.8	0.6
Calb FLC	1	-10	-11	1	-5
LANA-H2B inh	1.3	-0.5	-0.2	7.1	-8.2
RanGTP-Imp inh	3.7	4.3	-2.2	?	1.1
UCH37 inh	-1.3	2.2	0.4	0.2	3.1
Beta2AR agonist	9	-15	8	-13	8

(16) CC(=O)NC1CC2CCCC(C1)N2C(=O)Nc1ccccc1 (configuration not stated)
(17) CCOC(=O)C1CCN(C(=O)C2CCN(c3nc4ccc(OC)cc4s3)CC2)CC1
(18) CCOC(=O)CNC(=O)C(=O)c1c(O)[nH]c2ccccc12
(19) Cc1cc(C)n(-c2ccc(C(=O)O)cc2)n1
(20) Cc1cc(C)n(CC(O)COc2ccccc2C(=O)Nc2ccccc2)n1 (configuration not stated)
Compound	16	17	18	19	20
T cruzi repl	4	22	-9	-14	1
Beta apoptosis	/	-3	0	/	-2
Bfl-1 A1 inh	0.5	1.0	-0.2	0.3	0.7
Calb FLC	-7	-19	8	4	-6
LANA-H2B inh	-2.0	0.4	2.2	-2.5	4.5
RanGTP-Imp inh	-1.6	7.7	-2.0	-5.9	5.4
UCH37 inh	2.5	-0.3	4.0	-2.9	0.2
Beta2AR agonist	-3	5	4	-2	7

(21) Cc1ccc(C(=S)N2CCN(Cc3ccccc3)CC2)cc1
(22) CC(C)C(c1nnnn1Cc1ccc(F)cc1)N1CCN(C2CCCCC2)CC1 (configuration not stated)
(23) CC(C)(C)c1cc[n+](-c2[nH]c(=O)sc2/C=N/N=C(\[O-])c2cccnc2)cc1
(24) O=C1c2ccccc2C(=O)N1Cc1nc(-c2ccccc2)no1
(25) Nc1nc(NCCCN2CCOCC2)nc(Nc2ccccc2F)c1[N+](=O)[O-]
Compound	21	22	23	24	25
T cruzi repl	-1	32	8	-7	-2
Beta apoptosis	-6	/	1	8	4
Bfl-1 A1 inh	-0.8	-0.8	0.5	0.1	-0.4
Calb FLC	-22	-8	-4	4	15
LANA-H2B inh	-4.1	-2.3	-8.1	0.8	-5.0
RanGTP-Imp inh	1.1	-2.8	-0.6	-0.7	4.7
UCH37 inh	6.0	0.8	/	1.4	12
Beta2AR agonist	6	11	-2	-4	1

(26) COc1ccc2cc3c(N)nn(C(=O)Cc4ccc(Cl)cc4)c3nc2c1
(27) CCCC1Oc2ccccc2C(=O)N(CC(=O)c2ccc3c(c2)OCCO3)C1=O (configuration not stated)
(28) Cc1oc(-c2ccccc2F)nc1CS(=O)(=O)CC(=O)NCCCN(C)C1CCCCC1
(29) Cc1cc(C)nc(SCCN(C)C)n1
(30) O=S(=O)(c1ccc(-n2cnnn2)cc1)N1CCC(N2CCCCC2)CC1
Compound	26	27	28	29	30
T cruzi repl	2	-15	10	5	-5
Beta apoptosis	1	-1	-8	-7	-7
Bfl-1 A1 inh	-0.4	0.3	0.4	0.5	-0.4
Calb FLC	11	-9	-7	-25	33
LANA-H2B inh	2.1	0.3	-2.8	-1.1	2.3
RanGTP-Imp inh	-2.2	-0.2	1.0	8.1	0.0
UCH37 inh	-0.4	2.6	-1.4	-3.1	-1.0
Beta2AR agonist	10	10	3	5	-1

Compounds shown so far containing a cyano group (two):
(2) N#CCCNc1c(Cl)cc(Cl)cc1C(=O)O
(3) CN(C)c1oc(-c2cccs2)nc1C#N
Compound	2	3
T cruzi repl	-4	-16
Beta apoptosis	-17	-4
Bfl-1 A1 inh	0.4	0.4
Calb FLC	2	-2
LANA-H2B inh	-0.6	-4.8
RanGTP-Imp inh	-1.3	24*
UCH37 inh	1.9	/
Beta2AR agonist	9	-8

Following part
(31) CCCC(=O)NNC(=O)CCC(=O)NCc1ccccc1
(32) CC(NC(=O)c1cc2sccc2n1C)c1ccc2c(c1)OCCO2 (configuration not stated)
(33) CCc1ccc(-n2nc3ccc(NC(=O)c4ccc5c(c4)OCO5)cc3n2)cc1
(34) CCOC(=O)c1cc2c(ccn2C)n1CC(=O)N1CCN(c2cccc(C(F)(F)F)c2)CC1
(35) CC1=Nc2ncnn2C(c2ccccc2)/C1=N\O (configuration not stated)
Compound	31	32	33	34	35
T cruzi repl	-5	16	4	12	-9
Beta apoptosis	-10	-2	51	-2	1
Bfl-1 A1 inh	-0.5	0.8	0.7	0.4	0.0
Calb FLC	-15	-3	2	0	3
LANA-H2B inh	1.4	3.0	2.7	1.1	-5.0
RanGTP-Imp inh	3.0	-1.0	-8.7	1.8	3.0
UCH37 inh	2.3	5.5	-34	-0.6	/
Beta2AR agonist	7	-9	-3	10	7

(36) O=C1c2nc3ccccn3c2C(=O)N1Cc1ccccc1
(37) CC(=O)C1=C(C)NC(=O)NC1c1cccc(O)c1 (configuration not stated)
(38) CN(C)c1ccc(NS(=O)(=O)c2cc3c4c(c2)CC(=O)N4CCC3)cc1
(39) COCCN(C(=O)c1ccc(OCC(C)C)cc1)c1c(N)n(Cc2ccccc2)c(=O)[nH]c1=O
(40) Cc1ccc(Cn2cnc3ccccc32)cc1C
Compound	36	37	38	39	40
T cruzi repl	1	-20	6	13	21
Beta apoptosis	2	/	-3	-11	11
Bfl-1 A1 inh	0.0	0.6	-0.9	1.6	-0.5
Calb FLC	7	-6	1	-6	1
LANA-H2B inh	-2.6	-8.5	1.6	2.2	1.1
RanGTP-Imp inh	-1.8	-3.0	3.7	1.8	?
UCH37 inh	-1.1	2.6	0.5	2.7	6.7
Beta2AR agonist	10	-4	22	-15	3

Some of these compounds in order of molecular weight, falling:
(34) CCOC(=O)c1cc2c(ccn2C)n1CC(=O)N1CCN(c2cccc(C(F)(F)F)c2)CC1
(30) O=S(=O)(c1ccc(-n2cnnn2)cc1)N1CCC(N2CCCCC2)CC1
(24) O=C1c2ccccc2C(=O)N1Cc1nc(-c2ccccc2)no1
(16) CC(=O)NC1CC2CCCC(C1)N2C(=O)Nc1ccccc1 (configuration not stated)
(19) Cc1cc(C)n(-c2ccc(C(=O)O)cc2)n1
Compound	34	30	24	16	19
T cruzi repl	12	-5	-7	4	-14
Beta apoptosis	-2	-7	8	/	/
Bfl-1 A1 inh	0.4	-0.4	0.1	0.5	0.3
Calb FLC	0	33	4	-7	4
LANA-H2B inh	1.1	2.3	0.8	-2.0	-2.5
RanGTP-Imp inh	1.8	0.0	-0.7	-1.6	-5.9
UCH37 inh	-0.6	-1.0	1.4	2.5	-2.9
Beta2AR agonist	10	-1	-4	-3	-2

More compounds.
(41) COc1ccc(-c2c(-c3ccccc3)c(C(=O)C(=O)NCCCN(C)C)n3ccc4cc(OC)c(OC)cc4c23)cc1OC
(42) O=C(COC(=O)CNS(=O)(=O)c1ccccc1)Nc1ncc(Cl)cc1Cl
(43) CC(=O)c1ccc(O[C@@H]2O[C@H](CO)[C@@H](O)[C@H](O)[C@H]2O)cc1
(44) CC(C)c1ccc(NC(=S)NN2CCOCC2)cc1
(45) COc1cccc(C2CC(c3ccc(C)cc3)n3nc(N)nc3N2)c1 (configuration not stated)
Compound	41	42	43	44	45
T cruzi repl	?	/	/	-6	18
Beta apoptosis	13	2	-6	2	-12
Bfl-1 A1 inh	0.8	1.1	-0.1	0.6	0.0
Calb FLC	28	/	/	-5	1
LANA-H2B inh	5.6	-2.0	-1.9	3.8	-5.9
RanGTP-Imp inh	3.0	/	/	1.9	-1.2
UCH37 inh	4.0	0.3	3.4	3.5	-2.2
Beta2AR agonist	8	2	/	-1	2

(46) CCC(C)C(NC(=O)C1CCC(C)CC1)C(=O)NCCc1ccc(S(N)(=O)=O)cc1 (configuration not stated)
(47) Cn1cccc1CC(=O)NNC(=O)Nc1ccccc1F
(48) CCc1nonc1NC(=O)COc1ccc(Cl)c(C)c1
(49) NS(=O)(=O)c1c(Sc2ccccc2C(=O)O)ccc2ccccc12
Compound	46	47	48	49
T cruzi repl	13	/	-19	-3
Beta apoptosis	-5	-2	-1	-3
Bfl-1 A1 inh	1.0	2.4	-0.5	-2.4
Calb FLC	-1	/	13	5
LANA-H2B inh	-3.8	1.4	-2.4	-3.9
RanGTP-Imp inh	1.1	/	1.7	6.9
UCH37 inh	-0.4	3.5	4.4	7.3
Beta2AR agonist	3	0	1	2
